gsp antag: qHTS for Antagonists of gsp, the Etiologic Mutation Responsible for Fibrous Dysplasia/McCune-Albright Syndrome: qHTS; gsp-mutant cells, cAMP HTRF, 30 min; control for the full effect not named in the record; Potency, µM (series often up to 76.9 µM), for the others: at the top dose activity change, negative = inhibition, actives largely listed as inhibitors; 340,000 compounds, 0.4% hits; active = falling curve of any shape with a large fitted effect; inconclusive = falling curve, mostly with a smaller effect; inactive = flat or rising curve; cell line not stated here;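 note: intracellular cAMP measured with PDE inhibitor Ro 20-1724 present during compound exposure; potency is the fitted concentration of half-maximal effect; % is set by controls: 0 for no effect and ±100 for the full control effect; nearly all actives have a fitted effect of over 65% in size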
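G418-selected cells were plated in DMEM/10% FBS for 16-24 h at 37C, then treated with compounds plus the PDE inhibitor […] (300 uM solution added) for 30 min at 37C. Intracellular cAMP was measured by HTRF after 30 min lysis at room temperature.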
gsp ag: qHTS for Agonist of gsp, the Etiologic Mutation Responsible for Fibrous Dysplasia/McCune-Albright Syndrome: qHTS. gsp mutant cells, cAMP HTRF, 30 min; control for the full effect not named in the record. Potency, µM (doses to about 76.9 µM), for the others: top-dose activation (cAMP increase), actives largely listed as activators. 340,000 compounds, 0.13% hits. AID 624287, 2012; active = well fitted activation curve with a large enough effect; inconclusive = small, poorly fitted or top-dose-only effect, or another doubt; inactive = no such curve, though single readings can be large or run the other way; cell line not stated here;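 note: phosphodiesterase inhibitor Ro 20-1724 added with compounds to block cAMP breakdown; potency is the fitted concentration of half-maximal effect; nearly all actives have a fitted effect of over 60% in size; about a fifth of the inactives were tested at one dose only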
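Cells stably selected in G418 were plated at 2000/well, grown 16-24 hr, then given compounds in DMSO with the PDE inhibitor […] (300 uM solution added) for 30 min at 37C; cAMP was read by HTRF.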
Menin MLL FP FL: qHTS Assay for Inhibitors Targeting the Menin-MLL Interaction in MLL Related Leukemias: Competition With Fluorescein Labeled MLL-derived Peptide. AID 1766, 2009. Fluorescence polarization, fluorescein-MLL peptide displacement from menin. 290,000 tested, under 10 active. FP activity change, % at 61.4 µM; inconclusive = falling polarisation curve, or a change in total fluorescence; inactive = total fluorescence flat and polarisation flat or rising; no compound was filed as active; the % refers to the polarisation; negative = inhibition;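 note: % of control where 0% means no effect; inhibitors lower the polarisation; unlabelled MLL peptide was the positive control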
TRPML1 inh: qHTS for Inhibitors of the Human Mucolipin Transient Receptor Potential 1 (TRPML1); Mucolipin-1 (Homo sapiens), Q9GZU1; TRPML1-inducible cells, Ca2+ dye fluorescence, FDSS; stronger effect = lower value; inhibition of EC80 agonist-evoked calcium signal; activity change, negative = inhibition, % (concentration not given with the values); 390,000 compounds, 0.02% hits; AID 624415, 2012; in the data active means activity change below about -50%; inconclusive means about -30% to -50%; inactive means above about -30%;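 note: stimulus is agonist 54-4 at its EC80 concentration; % is set by controls: 0 for no effect and ±100 for the full control effect; the text of the record puts the active cut at -80%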
Target sequence (Q9GZU1 whole entry, looked up): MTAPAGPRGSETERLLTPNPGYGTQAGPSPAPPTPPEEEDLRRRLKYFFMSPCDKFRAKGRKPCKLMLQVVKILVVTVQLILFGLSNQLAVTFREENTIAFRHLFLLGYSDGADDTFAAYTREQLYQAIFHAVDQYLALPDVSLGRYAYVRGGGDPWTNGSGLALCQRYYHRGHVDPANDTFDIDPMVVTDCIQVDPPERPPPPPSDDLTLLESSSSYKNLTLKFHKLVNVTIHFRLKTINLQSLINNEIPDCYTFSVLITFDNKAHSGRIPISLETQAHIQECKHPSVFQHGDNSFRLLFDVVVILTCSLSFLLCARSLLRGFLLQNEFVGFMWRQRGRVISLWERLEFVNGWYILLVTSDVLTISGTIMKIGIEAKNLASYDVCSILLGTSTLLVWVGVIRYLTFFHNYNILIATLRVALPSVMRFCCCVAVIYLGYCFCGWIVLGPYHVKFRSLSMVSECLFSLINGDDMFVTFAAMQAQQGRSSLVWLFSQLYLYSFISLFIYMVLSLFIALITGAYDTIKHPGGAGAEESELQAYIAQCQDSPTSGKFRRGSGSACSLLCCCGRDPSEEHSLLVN
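Calcium fluorescence in TRPML1-DL cells induced overnight with Tet: a 110 s read after compound pin addition, then a 110 s antagonist read after challenge with 54-4 at 4 uM final (EC80).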
TRPML1 agonist: qHTS for Agonists of the Human Mucolipin Transient Receptor Potential 1 (TRPML1). AID 624414, 2012. activation, % (no concentration beside the values). TRPML1-expressing cells, Ca2+ dye fluorescence, FDSS; host cell line not named in the record; reference of the full effect not given here. 410,000 compounds, 0.12% hits; in the data active = activation above about 50%; inconclusive = about 30% to 50%; inactive = below about 30%; note: 0% is about no effect; the text of the record puts the active cut at 80%
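In this qHTS format, compounds were pin-transferred onto Ca8-dye-loaded TRPML1-DL cells induced with Tet overnight, and intracellular Ca2+ fluorescence was recorded kinetically for 110 s after a 10 s baseline. A subsequent 4uM final 54-4 (EC80) addition followed by a second 110 s read served as the antagonist phase.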
ClpP mod: qHTS Assay for Activators of ClpP; AID 651965, 2013; 340,000 compounds, 1.9% hits; ATP-dependent Clp protease proteolytic subunit (Bacillus subtilis (strain 168)), P80244; Potency, µM (highest dose often 57.5 µM), for inactives: top-dose activity change, negative = active; purified B. subtilis ClpP, FRET peptide cleavage, 20 min; active = well fitted falling curve with a large enough effect; inconclusive = small, poorly fitted or top-dose-only effect; inactive = no such curve, though single readings can be large or run the other way; note: potency is the fitted concentration of half-maximal effect; the source files actives as falling curves though it sought activators and does not explain the sign; nearly all actives have a fitted effect of over 65% in size; many hits overshoot -100%
Target sequence (P80244 whole entry, looked up): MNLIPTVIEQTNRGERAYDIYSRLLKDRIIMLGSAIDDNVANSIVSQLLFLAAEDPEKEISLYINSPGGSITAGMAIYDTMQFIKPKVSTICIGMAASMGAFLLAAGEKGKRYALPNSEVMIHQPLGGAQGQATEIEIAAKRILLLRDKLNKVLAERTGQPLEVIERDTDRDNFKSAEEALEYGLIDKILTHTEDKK
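Buffer: 100 mM Tris/HCl pH8, 100 mM KCl, 0.05% low protease BSA, 2.5% glycerol, 0.01% Tween-20. ClpP 10 microg/mL final; 20 min RT; delta FRET normalized to ADEP and DMSO controls.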
Active calls of the source: *; & = joins results of further samples; [ ] = remark or other dose. Outcome played no part in choosing rows. Share with any hit: about 2.1%.

Results for Cc1ccc(C(=O)NS(=O)(=O)c2ccccc2)cc1 ?
gsp antag: -2.3%; gsp ag: -3.2%[15.4 µM]; Menin MLL FP FL: -1.4; TRPML1 inh: -2.8; TRPML1 agonist: 0.0

How did O=S1(=O)[C@H]2C[C@@H]3C=C[C@@]2(CN1Cc1ccc(Cl)cc1)O3 do in these assays?
gsp antag: 11.8%; Menin MLL FP FL: 1.8; TRPML1 inh: -3.8; TRPML1 agonist: -0.1&-0.6; ClpP mod: 1.5%&1.1%

What do the screens show for `CCOc1ccc(CNC(=O)c2cc3ccccn3n2)cc1OC`?
TRPML1 inh: -21.4; TRPML1 agonist: 0.1; ClpP mod: -25.3%

What do the screens show for `O=C1CCSc2c1ccc1ccccc21`?
gsp antag: -1.8%; gsp ag: 10.9%; TRPML1 inh: 25.0; TRPML1 agonist: -0.1; ClpP mod: inconclusive

What do the screens show for `CC1NC(=S)N(C2CCCCC2)C1=O` (configuration not stated)?
gsp antag: 16.5%; gsp ag: 0.7%[15.4 µM]; Menin MLL FP FL: -6.0; TRPML1 inh: 34.2; TRPML1 agonist: -0.1

What do the screens show for `COc1ccc(S(=O)(=O)N2CCC(C(=O)N3CCN(C)CC3)CC2)cc1Cl`?
gsp antag: 0.3%; gsp ag: -13.7%[15.4 µM]; Menin MLL FP FL: -2.6; TRPML1 inh: -0.7; TRPML1 agonist: -0.4

What do the screens show for `CCCCN(C(=O)c1ccc(S(=O)(=O)N2CCCC2)cc1)C1CCS(=O)(=O)C1` (configuration not stated)?
gsp antag: 5.6%; gsp ag: -3.3%[15.4 µM]; TRPML1 inh: 1.4; TRPML1 agonist: 0.9; ClpP mod: -5.2%

How did C=CCn1c(CCNC(=O)c2cccs2)nnc1SCC(=O)c1ccc(Cl)cc1 do in these assays?
gsp antag: 6.9%; gsp ag: -1.0%; Menin MLL FP FL: 6.4; TRPML1 inh: -1.1; TRPML1 agonist: 4.1; ClpP mod: 0.2%

Results for CC1(C)CC2(CCO1)N1CC3(C)CN2CC(C)(C1)C3=O (configuration not stated) ?
gsp antag: 3.6%; gsp ag: 13.3%; TRPML1 inh: 9.2; TRPML1 agonist: -1.3; ClpP mod: -1.3%

What do the screens show for `CCOC(=O)/C=C(C)\C=C\c1c[nH]c2ccccc12`?
gsp antag: 0.7%; gsp ag: -8.9%[15.4 µM]; Menin MLL FP FL: inconclusive; TRPML1 inh: -16.0; TRPML1 agonist: 0.9; ClpP mod: 0.0%

Next part; the last 2 above are carried over.
Results for CC1(C)CC2(CCO1)N1CC3(C)CN2CC(C)(C1)C3=O (configuration not stated) ?
gsp antag: 3.6%; gsp ag: 13.3%; TRPML1 inh: 9.2; TRPML1 agonist: -1.3; ClpP mod: -1.3%

What do the screens show for `CCOC(=O)/C=C(C)\C=C\c1c[nH]c2ccccc12`?
gsp antag: 0.7%; gsp ag: -8.9%[15.4 µM]; Menin MLL FP FL: inconclusive; TRPML1 inh: -16.0; TRPML1 agonist: 0.9; ClpP mod: 0.0%

How did Cc1ccc(-n2c(O)c(/C=N/Nc3ccc(S(=O)(=O)N4CCOCC4)cc3[N+](=O)[O-])c3ccccc3c2=O)c(C)c1 do in these assays?
gsp antag: 39.8µM*; gsp ag: -26.6%[15.4 µM]; Menin MLL FP FL: 1.1; TRPML1 inh: 15.6; TRPML1 agonist: 0.5; ClpP mod: 33.6%

How did COc1ccc(S(=O)(=O)N(C)CC(=O)Nc2ccccc2SC)cc1Cl do in these assays?
gsp antag: -5.4%; gsp ag: 18.6%; Menin MLL FP FL: -0.1; TRPML1 inh: 46.3; TRPML1 agonist: -0.9; ClpP mod: -1.6%

Results for Cc1cc2nn(-c3ccccc3)nc2cc1NC(=O)c1cccs1 ?
gsp antag: -27.5%; gsp ag: -33.9%; Menin MLL FP FL: -2.5; TRPML1 inh: -0.2; TRPML1 agonist: 1.3; ClpP mod: -11.9%

Results for FC(F)(F)c1cccc(N2Cc3ccccc3C2)c1 ?
gsp antag: -6.6%; gsp ag: -24.5%; Menin MLL FP FL: 1.6; TRPML1 inh: 0.2; TRPML1 agonist: 4.1; ClpP mod: -1.0%

Results for C[C@H]1CN([C@@H](C)CO)C(=O)CCCn2nncc2CO[C@@H]1CN(C)S(=O)(=O)c1ccc(-n2cccn2)cc1 ?
gsp ag: -2.0%; TRPML1 inh: -2.0; TRPML1 agonist: -0.3; ClpP mod: 0.1%

How did CCOC(=O)c1ccccc1NC(=O)Cn1ncc2c([nH]c3ccccc32)c1=O do in these assays?
TRPML1 inh: 44.7; TRPML1 agonist: 3.6; ClpP mod: -12.9%

What do the screens show for `Cc1ccc(C(=O)Cn2nc(C)c([N+](=O)[O-])c2C)c(C)c1`?
gsp antag: 10.9%; gsp ag: -16.5%[15.4 µM]; Menin MLL FP FL: 3.5; TRPML1 inh: 39.1; TRPML1 agonist: -0.2; ClpP mod: 0.2%

Results for Cc1nc2sc(C(c3cccs3)N3CCN(c4cccc(Cl)c4)CC3)c(O)n2n1 (configuration not stated) ?
gsp antag: -23.9%; gsp ag: -17.4%; Menin MLL FP FL: 3.9; TRPML1 inh: -10.6; TRPML1 agonist: -0.6; ClpP mod: 0.7%

Results for N#Cc1ccccc1 ?
gsp antag: 7.0%; TRPML1 inh: 26.9; TRPML1 agonist: 1.6; ClpP mod: 0.1%

How did Cc1ccc(CNc2nc3ccc(C)cc3n3nnnc23)cc1 do in these assays?
TRPML1 inh: 3.9; TRPML1 agonist: -0.5; ClpP mod: -0.4%

Results for Cc1cc(C)c2[nH]c(=O)c(C(c3nnnn3Cc3ccc4c(c3)OCO4)N3CCCC3)cc2c1 (configuration not stated) ?
gsp antag: -3.1%[15.4 µM]; gsp ag: 0.8%; Menin MLL FP FL: 3.8; TRPML1 inh: -16.6; TRPML1 agonist: -0.2; ClpP mod: 1.7%

Results for O=C1c2ccccc2[C@@H]2C[C@@H](O)[C@H](Nc3ccccc3)CCN12 ?
gsp antag: -3.3%; TRPML1 inh: -15.1; TRPML1 agonist: 0.1; ClpP mod: -3.6%

Results for COCCCNC(=O)Cn1nc(-c2ccc(C)cc2)ccc1=O ?
gsp antag: 1.1%; gsp ag: -10.4%; Menin MLL FP FL: 4.9; TRPML1 inh: 3.2; TRPML1 agonist: 0.7; ClpP mod: inconclusive

Results for CN1CCCC(OC(=O)CCCCC(=O)OC2CCCN(C)C2)C1 (configuration not stated) ?
gsp antag: 4.2%; gsp ag: -15.5%; Menin MLL FP FL: -0.6; TRPML1 inh: 3.4; TRPML1 agonist: -0.1; ClpP mod: -2.3%

How did CC(CC(=O)Nc1ccc2c(c1)OCO2)c1ccccc1 (configuration not stated) do in these assays?
gsp antag: 4.2%; gsp ag: -43.4%; Menin MLL FP FL: 0.8; TRPML1 inh: 11.2; TRPML1 agonist: -0.7

Results for Cc1ccnc(NC(=O)c2ccc(OCc3c(C)noc3C)cc2)c1 ?
gsp antag: -6.4%; gsp ag: 5.5%; TRPML1 inh: -7.4; TRPML1 agonist: -1.1; ClpP mod: 105.7%

What do the screens show for `O=C(Cn1nnc(-c2ccccc2)n1)OCc1csc(-c2ccccc2)n1`?
gsp antag: 0.2%; gsp ag: -1.6%; Menin MLL FP FL: -5.2; TRPML1 inh: 0.8; TRPML1 agonist: 2.9; ClpP mod: -6.6%

Results for CCCOC(=O)CC1C(=O)NCCN1Cc1cc(OC)cc(OC)c1 (configuration not stated) ?
gsp antag: -0.7%; gsp ag: 14.4%[15.4 µM]; Menin MLL FP FL: 2.1; TRPML1 inh: 5.6; TRPML1 agonist: 0.9; ClpP mod: 0.1%

What do the screens show for `CC(=O)N(C)c1ccc(N=C2C(=O)Nc3ccccc32)cc1`?
gsp antag: 4.6%; gsp ag: 4.2%; Menin MLL FP FL: -3.4; TRPML1 inh: 23.3; TRPML1 agonist: 0.2; ClpP mod: -1.1%

What do the screens show for `O=C1NCC(COc2ccc([N+](=O)[O-])cc2)O1` (configuration not stated)?
gsp antag: 8.1%; gsp ag: 9.8%; Menin MLL FP FL: -5.4; TRPML1 inh: -13.1; TRPML1 agonist: 0.9; ClpP mod: -2.4%

What do the screens show for `COCCOC1CCN(C(=O)c2ccc(OC)c(OC3CCN(C(C)C)CC3)c2)CC1`?
gsp antag: 1.0%; gsp ag: -2.6%; Menin MLL FP FL: 0.2; TRPML1 inh: 1.8; TRPML1 agonist: -0.5; ClpP mod: -2.7%

How did Cc1ccc(S(=O)(=O)N/N=C(\c2ccccc2)C2CC2)cc1 do in these assays?
gsp antag: -3.8%; gsp ag: 25.0%; TRPML1 inh: 2.9; TRPML1 agonist: 3.2; ClpP mod: 0.5%

How did CCOc1ccc(CC(=O)N/N=C/c2cccnc2)cc1 do in these assays?
gsp antag: -14.9%; gsp ag: -2.9%[15.4 µM]; Menin MLL FP FL: -2.7; TRPML1 inh: -9.0; TRPML1 agonist: -0.3; ClpP mod: 15.8µM*

What do the screens show for `Cc1c(NC(=O)c2noc(C(C)C)c2[N+](=O)[O-])c(=O)n(-c2ccccc2)n1C`?
gsp antag: 14.2%; gsp ag: inconclusive; Menin MLL FP FL: 1.6; TRPML1 inh: -3.6; TRPML1 agonist: -0.8; ClpP mod: 0.1%

What do the screens show for `CCOc1ccc(OCC)c(NC(=O)C2C3C=CC(O3)C2C(=O)NCc2ccco2)c1` (configuration not stated)?
gsp antag: 3.7%; gsp ag: -2.5%; Menin MLL FP FL: -1.4; TRPML1 inh: -12.4; TRPML1 agonist: -0.7; ClpP mod: -2.3%

Results for CCCOc1ccc(C(=O)NNC(=S)NC(=O)c2cc(-c3ccc(Cl)cc3)nc3ccccc23)cc1 ?
gsp antag: -11.8%; gsp ag: 4.3%; TRPML1 inh: -24.1; TRPML1 agonist: 3.9; ClpP mod: 0.5%

What do the screens show for `CC(C)CCn1cnc2c1c(=O)n(CC(=O)NC(N)=O)c(=O)n2Cc1ccccc1`?
gsp antag: -4.8%; gsp ag: 20.4%; Menin MLL FP FL: 0.0; TRPML1 inh: 1.0; TRPML1 agonist: 1.0

Results for O=C(Nc1c(C(=O)Nc2ccc(F)cc2)oc2ccccc12)c1ccccc1F ?
TRPML1 inh: -0.9; TRPML1 agonist: -0.3; ClpP mod: inconclusive

What do the screens show for `Cc1ccc(C)c(NC(=O)C(Sc2nc3ccc(C)cc3[nH]2)c2ccccc2)c1` (configuration not stated)?
gsp antag: inconclusive; gsp ag: -35.1%[inhibitor]; Menin MLL FP FL: 5.3; TRPML1 inh: -12.4; TRPML1 agonist: 0.6

Source: PubChem
